# Compound activity: PubChem, National Center for Advancing Translational Sciences (NCATS)
# TDP1 inh: blocks human tyrosyl-DNA phosphodiesterase 1. 350,000 tested, 0.28% active. Q9NUW8. recombinant TDP1, AlphaScreen DNA substrate cleavage. Potency, µM (doses to about 130 µM), inactives show at the highest dose activity change, negative = inhibition, most hits filed as inhibitors; also: nearly all actives have a fitted effect of over 40% in size
# Target sequence (Q9NUW8 whole entry, looked up): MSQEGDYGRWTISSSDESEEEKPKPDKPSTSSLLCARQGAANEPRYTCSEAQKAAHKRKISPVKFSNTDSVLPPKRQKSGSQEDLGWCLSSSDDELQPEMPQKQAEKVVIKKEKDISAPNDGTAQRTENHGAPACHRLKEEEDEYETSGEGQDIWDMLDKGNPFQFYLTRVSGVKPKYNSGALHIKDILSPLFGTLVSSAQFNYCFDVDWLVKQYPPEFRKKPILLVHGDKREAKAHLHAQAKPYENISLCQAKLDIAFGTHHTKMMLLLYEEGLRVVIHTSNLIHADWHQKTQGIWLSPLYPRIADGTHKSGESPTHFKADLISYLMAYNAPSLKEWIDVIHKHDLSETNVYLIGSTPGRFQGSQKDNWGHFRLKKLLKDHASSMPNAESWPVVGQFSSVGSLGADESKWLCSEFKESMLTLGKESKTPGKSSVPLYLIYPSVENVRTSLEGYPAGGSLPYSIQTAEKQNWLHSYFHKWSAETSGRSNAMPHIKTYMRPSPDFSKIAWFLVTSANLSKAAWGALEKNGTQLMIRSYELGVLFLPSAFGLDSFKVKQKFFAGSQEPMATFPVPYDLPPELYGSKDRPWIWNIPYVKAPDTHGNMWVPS
#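 Tdp1 1 nM final; 15 min RT w/ cpd; substrate 15 nM, 5 min; beads 10 ug/ml, 10 min; AlphaScreen read. Neg ctrl: no enzyme.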
# N370S GC: inhibitors or activators of N370S glucocerebrosidase for Gaucher disease. P04062. N370S GC spleen homogenate, 4MU-glucoside fluorescence. Potency, µM (highest dose often 59.4 µM), for inactives: at the top dose activity change, negative = inhibition, usual class: inhibitors. 330,000 tested, 0.092% active. AID 2101;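 also: 0% = full enzyme activity and -100% = no enzyme basal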
# An asterisk follows results filed as active; ? = inconclusive; . = no result given; [ ] = dose if it differs, or a comment. Calls follow the shape of the dose curve; as a rule, active = well fitted curve in the direction sought with a large enough effect; inconclusive = small, poorly fitted or top-dose-only effect, or another doubt; inactive = no such curve, though single readings can be large; an effect the other way counts as inactive or inconclusive. Unless noted, % is scaled to controls: 0 for no effect and ±100 for the full control effect; potency is read from the fitted curve at half-maximal effect.
SMILES,TDP1 inh,N370S GC
Cc1ccc(NC(=O)c2cc(NC(=O)C3CC=CCC3C(=O)O)ccc2N2CCOCC2)cc1 (stereo unspecified),2%,-24%
Cc1cc(N)c2ccccc2n1,-2%,-11%
N#Cc1nc(-c2ccc(F)cc2)oc1N1CCCCC1,.,26%
CCCc1nnc(NC(=O)CCC(=O)NC2CCCC2)s1,1%,-14%
COc1ccc(NC(=O)CSc2nnc(-c3cccnc3)n2C)cc1,.,1%
CC(=O)c1cccc(NC(=O)N2CCCC2C(=O)NC2CCCC2)c1 (stereo unspecified),.,0%
CCCC1(C(=O)O)NC(c2ccccc2O)C2C(=O)N(c3cccc(Cl)c3)C(=O)C21 (stereo unspecified),-1%,5%
Cc1ccc(NC(=O)c2cc(S(=O)(=O)N3CCC4(CC3)OCCO4)ccc2F)cc1,1%,-10%
COc1ccc2oc(=O)c(-c3cn4ccc(C)cc4n3)cc2c1,5%,13%
CCn1c(SCC(=O)NCC(=O)Nc2ccc(F)cc2)nnc1-c1cccs1,6%,-1%
CC(=O)Nc1cccc(N2CCCC2=O)c1,3%,-2%
CNC(=S)N/N=C/c1cn(CCOc2ccc(OC)cc2)c2ccccc12,8%,3%
CCN(CC)c1ccc(NC(=O)COc2ccc(N(C)S(=O)(=O)c3cccs3)cc2)cc1,8%,-2%
CCOc1ccccc1NC(=O)COC(=O)C(Cc1ccccc1)NC(=O)c1ccco1 (stereo unspecified),1%,.
O=[N+]([O-])c1cccc(S(=O)(=O)NCCc2ccccc2)c1,9%,0%
CCCCOCCCn1c(-c2ccco2)nc2nc3ccccc3nc21,7%,22%
COc1ccc(S(=O)(=O)N2CCC(C(=O)N3CCOCC3)CC2)cc1,-4%,6%
Cc1ccc(NC(=O)CCc2c(C)nc3ncnn3c2C)nc1,-1%,?
CN1OCC(S(=O)(=O)c2ccccc2)C1c1ccccc1 (stereo unspecified),5%,7%
O=C(CSc1nc2c(c(=O)n1-c1ccc(Cl)cc1)SCC2)NCC1CCCO1 (stereo unspecified),5%,2%
CC(C)NC(=O)CN(Cc1ccccc1)S(=O)(=O)c1ccccc1,0%,-13%
Cc1cccc(OCCC(=O)Nc2ccc(S(=O)(=O)N3CCCC3)cc2)c1,-1%,0%
O=C(CCNS(=O)(=O)c1cccs1)NCc1ccco1,-1%,4%
Cc1ccccc1NS(=O)(=O)c1ccc(OCCNS(C)(=O)=O)cc1,3%,-10%
C/C=C/C(=O)OCC(=O)Nc1ccccc1Br,-1%,-7%

# The list goes on, overlapping the part above by four compounds.
SMILES,TDP1 inh,N370S GC
Cc1cccc(OCCC(=O)Nc2ccc(S(=O)(=O)N3CCCC3)cc2)c1,-1%,0%
O=C(CCNS(=O)(=O)c1cccs1)NCc1ccco1,-1%,4%
Cc1ccccc1NS(=O)(=O)c1ccc(OCCNS(C)(=O)=O)cc1,3%,-10%
C/C=C/C(=O)OCC(=O)Nc1ccccc1Br,-1%,-7%
COc1ccc(-c2cn3cc([N+](=O)[O-])ccc3n2)cc1OC,5%,-13%
N#CCSc1nc2ccccc2c(=O)n1C1CCCCC1,-3%,2%
Cc1cccn2c(=O)c(C=O)c(N3CCC4(CC3)OCCO4)nc12,3%,-1%
O=C(NCc1ccco1)C1CCN(S(=O)(=O)c2cccc([N+](=O)[O-])c2)CC1,.,9%
Cc1c(CC(=O)O)c(=O)oc2cc(OCc3nn[nH]n3)ccc12,-1%,-12%
O=C(NCCN1CCOCC1)c1c(Cl)cccc1Cl,.,-4%
CCOC(=O)C1CCCN(C(=O)c2ccc(-n3ccc4ccccc43)s2)C1 (stereo unspecified),0%,.
COc1ccc(C(C)=O)cc1COC(=O)c1ccc(C)c(S(=O)(=O)N2CCOCC2)c1,2%,.
CCCCOc1ccc(C(=O)NC(=S)Nc2ccc(CN3CCOCC3)cc2)cc1,4%,-9%
COc1cc(NC(=O)Cc2cccs2)cc(OC)c1,-4%,8%
CCCN(CCC)S(=O)(=O)c1cccc(-c2csc(C)n2)c1,.,17%
CC(C)CN(C(=O)c1cccc(S(=O)(=O)N2CCN(C)CC2)c1)C1CCS(=O)(=O)C1 (stereo unspecified),0%,-9%
COc1ccc(Cl)cc1Nc1nc(C)nc2c1nnn2Cc1ccccc1,.,1%
CCOC(=O)NCC(C#CCN(CC)CC)N(CC)CC (stereo unspecified),6%,3%
COc1ccc(NC(=O)N2CCN(c3cccc(C(F)(F)F)c3)CC2)cc1OC,8%,-1%
CN(C)S(=O)(=O)c1ccc(C(=O)OCC(=O)Nc2sc3c(c2C#N)CCCCC3)cc1,-1%,3%
O=C(Cn1nnnc1CN1CCOCC1)N1CCC(c2cccc(Cl)c2)C1 (stereo unspecified),2%,-2%
CCOC(=O)/C=C1\SCC(=O)N1CC(=O)NC(C)C,1%,2%
Cn1c(=O)[nH]c(=O)c2c1nc(NCCCn1ccnc1)n2Cc1ccc(F)cc1,10%,-3%
O=C(NCc1ccccn1)C(=O)Nc1cc2c3c(c1)CC(=O)N3CCC2,1%,2%
CCN1C(=O)[C@H]2[C@@H](c3ccc(-c4ccc(C(C)=O)cc4)cc3)N[C@@](Cc3ccccc3)(C(=O)OC)[C@H]2C1=O,2%,0%
CCOc1ccccc1N(CC(=O)NC1CCCCC1)C(=O)c1nsc(Cl)c1Cl,7%,-1%
Nc1nc(-c2ccc(C(=O)O)cc2)cs1,-8%,-3%
COc1ccc(-c2[nH]ncc2CN(C)C(C)c2cccs2)c(F)c1 (stereo unspecified),3%,-4%
C[C@H](CO)N1C[C@H](C)[C@@H](CN(C)S(=O)(=O)c2cn(C)cn2)Oc2c(NS(=O)(=O)c3cccs3)cccc2C1=O,1%,.

# A stretch from further up, as a working copy:
SMILES,TDP1 inh,N370S GC
O=C(CSc1nc2c(c(=O)n1-c1ccc(Cl)cc1)SCC2)NCC1CCCO1 (stereo unspecified),5%,2%
CC(C)NC(=O)CN(Cc1ccccc1)S(=O)(=O)c1ccccc1,0%,-13%
Cc1cccc(OCCC(=O)Nc2ccc(S(=O)(=O)N3CCCC3)cc2)c1,-1%,0%
O=C(CCNS(=O)(=O)c1cccs1)NCc1ccco1,-1%,4%
Cc1ccccc1NS(=O)(=O)c1ccc(OCCNS(C)(=O)=O)cc1,3%,-10%
C/C=C/C(=O)OCC(=O)Nc1ccccc1Br,-1%,-7%
COc1ccc(-c2cn3cc([N+](=O)[O-])ccc3n2)cc1OC,5%,-13%
N#CCSc1nc2ccccc2c(=O)n1C1CCCCC1,-3%,2%
Cc1cccn2c(=O)c(C=O)c(N3CCC4(CC3)OCCO4)nc12,3%,-1%
O=C(NCc1ccco1)C1CCN(S(=O)(=O)c2cccc([N+](=O)[O-])c2)CC1,.,9%
Cc1c(CC(=O)O)c(=O)oc2cc(OCc3nn[nH]n3)ccc12,-1%,-12%
O=C(NCCN1CCOCC1)c1c(Cl)cccc1Cl,.,-4%
CCOC(=O)C1CCCN(C(=O)c2ccc(-n3ccc4ccccc43)s2)C1 (stereo unspecified),0%,.
COc1ccc(C(C)=O)cc1COC(=O)c1ccc(C)c(S(=O)(=O)N2CCOCC2)c1,2%,.
CCCCOc1ccc(C(=O)NC(=S)Nc2ccc(CN3CCOCC3)cc2)cc1,4%,-9%
COc1cc(NC(=O)Cc2cccs2)cc(OC)c1,-4%,8%
CCCN(CCC)S(=O)(=O)c1cccc(-c2csc(C)n2)c1,.,17%
CC(C)CN(C(=O)c1cccc(S(=O)(=O)N2CCN(C)CC2)c1)C1CCS(=O)(=O)C1 (stereo unspecified),0%,-9%
COc1ccc(Cl)cc1Nc1nc(C)nc2c1nnn2Cc1ccccc1,.,1%
CCOC(=O)NCC(C#CCN(CC)CC)N(CC)CC (stereo unspecified),6%,3%
COc1ccc(NC(=O)N2CCN(c3cccc(C(F)(F)F)c3)CC2)cc1OC,8%,-1%
CN(C)S(=O)(=O)c1ccc(C(=O)OCC(=O)Nc2sc3c(c2C#N)CCCCC3)cc1,-1%,3%
O=C(Cn1nnnc1CN1CCOCC1)N1CCC(c2cccc(Cl)c2)C1 (stereo unspecified),2%,-2%
CCOC(=O)/C=C1\SCC(=O)N1CC(=O)NC(C)C,1%,2%
Cn1c(=O)[nH]c(=O)c2c1nc(NCCCn1ccnc1)n2Cc1ccc(F)cc1,10%,-3%
O=C(NCc1ccccn1)C(=O)Nc1cc2c3c(c1)CC(=O)N3CCC2,1%,2%
CCN1C(=O)[C@H]2[C@@H](c3ccc(-c4ccc(C(C)=O)cc4)cc3)N[C@@](Cc3ccccc3)(C(=O)OC)[C@H]2C1=O,2%,0%
CCOc1ccccc1N(CC(=O)NC1CCCCC1)C(=O)c1nsc(Cl)c1Cl,7%,-1%

# Continued.
SMILES,TDP1 inh,N370S GC
O=C1c2ccccc2-c2ccc(C(=O)N3CCOCC3)cc21,7%,1%
Fc1ccc(CNCc2ccccc2Cl)cc1,-3%,-5%
COc1ccccc1NC(=O)CSc1nc2ccccc2n1C(C)=O,3%,2%
Brc1cccc(OCCCNC2CCCC2)c1,.,-8%
COc1c(S(=O)(=O)n2nc(C)cc2C)ccc(Cl)c1Cl,0%,15%
O=C(Oc1ccc(Cl)c(Cl)c1)C1=CC=CN2CCS(=O)(=O)N=C12,-1%,.
CC(C)NC(=O)c1ccc(Sc2ccccc2)c([N+](=O)[O-])c1,1%,8%
CCN(Cc1nc2ccccc2c(=O)[nH]1)C(=O)COc1ccccc1Cc1ccccc1,0%,26%
CC1=C(C(=O)OC(C)C)C(c2cccs2)C(C(=O)OC(C)C)=C(C)N1,3%,23%
Cc1ccc2onc(CC(=O)N3CCN(c4ccc(Cl)cc4)CC3)c2c1,5%,.
CC(=O)c1ccc(NC(=O)CSc2nnc(-c3ccncc3)n2C2CC2)cc1,0%,.
Cc1ccc(OCCCSc2ncccn2)cc1C,-4%[56.1 µM],4%
COc1ccc(OCC(=O)Nc2ccc3c(c2)nc(CCN2CCCC2)n3C)cc1,2%,-3%
Cc1cccc(NC(=O)CCN2C(=O)c3cccc([N+](=O)[O-])c3C2=O)c1,0%,-9%
OCCC1CN(C2CCSCC2)CCN1C1CCCC1 (stereo unspecified),3%,-3%
O=C(CN1C(=O)CCSc2ccccc21)Nc1ccccc1,2%,15%
CCN(CC)C(=O)Cn1cc(C(=O)C(=O)NCc2ccco2)c2ccccc21,8%,6%
CC(C)n1nc(C(=O)Nc2ccc(-n3cnnn3)cc2)c2ccccc2c1=O,-2%,.
COc1ccc(OCC(=O)Nc2nonc2NC(=O)COc2ccc(OC)cc2)cc1,-5%,-3%
O=C1CCC(=O)N1CCCCCc1nc(-c2ccccc2)no1,7%,10%
Cc1cccc(OCCCC(=O)Nc2ccc(S(=O)(=O)Nc3onc(C)c3C)cc2)c1,2%,-22%
Cc1ccc2nc(SCc3nnc(-c4ccccc4[N+](=O)[O-])o3)c(C#N)cc2c1,-4%,8%
CCCN1C(=O)c2ccccc2NC1c1ccc(Br)cc1 (stereo unspecified),.,12%
CCOc1ccccc1NS(=O)(=O)N(C)C,9%,8%
Cc1nnc(NC(=O)Nc2ccc(Cl)c(Cl)c2)s1,-2%,2%
SMILES,TDP1 inh,N370S GC
O=C(N/N=C/C=C/c1ccccc1)c1ccncc1,3%,-8%
COC(=O)c1ccc(NCCC(=O)O)cc1,1%,-1%
O=C(C1=C[C@H](c2ccc(C(F)(F)F)cc2)C[C@H](OCc2ccc(CO)cc2)O1)N1CCN(Cc2ccccc2)CC1,6%,-11%
N#CCCN(C(=O)CN1CCN(S(=O)(=O)c2ccc3c(c2)OCCO3)CC1)c1ccc(F)cc1,0%,.
CC(/C=N/NC(=O)c1ccncc1)=C\c1ccccc1,6%,-8%
Cc1ccc(CNC(=O)C2CCN(S(=O)(=O)N3CC(C)CC(C)C3)CC2)cc1 (stereo unspecified),-2%,-20%
COc1ccccc1C(=O)NC(=S)/C=C1/N(C)c2ccccc2C1(C)C,3%,12%
CC1Cc2ccccc2N1Cc1ccc([N+](=O)[O-])cc1 (stereo unspecified),16%,-12%
CC(C)CCNC(=O)NC(=O)COc1ccccc1C#N,5%,12%
CCOc1ccc2[nH]c(O)c(NC(C)=O)c2c1,-9%,-4%
Cc1ccc(NC(=O)CN2CCN(C(=O)C3CCCO3)CC2)c(C)c1 (stereo unspecified),3%,-19%
O=C(NCCC1=CCCCC1)c1ccc(F)cc1,6%,10%
Clc1ccccc1CSc1nnc(-c2ccncc2)o1,0%,7%
COc1ccccc1NC=C1C(=O)OC2(CCCCC2)OC1=O,0%,-5%
O=C1c2ccccc2C(=O)N1CN(C(=O)COc1ccccc1)c1ccc(F)cc1,-5%,12%
O=C(O)CCCCCCNC(=O)c1cncc(O)c1,2%,-16%
COc1ccc(Cn2nnnc2CN2CCc3ccccc32)cc1,0%,5%
O=S1(=O)CCN2C(c3ccco3)=CSC2=N1,-12%,1%
CC1(C)CC(NC(=O)c2cccc(F)c2)CC(C)(C)N1,.,-12%
COc1ccc(CCCNC(=O)C2CCC(=O)N(CCc3cccc(F)c3)C2)cc1 (stereo unspecified),4%,-5%
CC(=O)c1ccc(C(=O)NC2CCCN(Cc3ccccc3F)C2)cc1 (stereo unspecified),.,-3%
COc1ccc(OC)c(Nc2nc(-c3sc(NC(=O)CC(C)C)nc3C)cs2)c1,11%,-2%
Cc1ccc(C(=O)N/C(=C\c2ccco2)C(=O)N2CC(C)OC(C)C2)cc1C (stereo unspecified),1%,-2%

# Some of the compounds tested; most or all hits stand in other tables.
